Vif A3G: inhibitors of Vif binding to APOBEC3G peptide, primary screen, biochemical, TR-FRET, GST-Vif 1-94, biotin-A3G peptide, dose response retest (AID 1117319); TR-FRET GST-Vif / biotin-A3G peptide binding; higher % means a stronger effect; test concentration not given here; strong numbers were not always called active; 260,000 compounds, 0.57% hits; one-dose inhibition, %; IC50 in µM for titrated hits;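 active = above the screen mean plus three standard deviations and confirmed in dose response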;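 also: Vif residues 1-94 fused to GST binding biotinylated APOBEC3G peptide 110-148; 0% = full assay without inhibitor and 100% = GST in place of GST-Vif; retest series ran down from 100 µM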
rRNA inh HTS: inhibitors of bacterial rRNA selective over humanized ribosomes | AID 720706 | 350,000 compounds, 1.6% hits | GFP signal change (wild-type ribosome), % (no concentration beside the values) | E. coli WT GFP vs humanized-ribosome RFP mutants, fluorescence, 24 h; stronger effect = lower value; DMSO median 0, no signal -100;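 active = significant combined selectivity score with lowered wild-type GFP, culture density cut under 30%, mutant RFP and density less affected; inactive = any of these conditions unmet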; also: one replicate is shown; some compounds called inactive have numbers as strong as hits
MLL AF4-AF9 inh: blocks AF4 peptide binding to human AF9 | P42568 | AlphaScreen, biotin-AF4 peptide binding to FLAG-AF9 | inhibition, % at 10 µM | 350,000 compounds, 0.47% hits;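 active = every replicate reaching a set inhibition limit, whatever the replicate mean, cut at about 25% in these data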;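 also: 0% = plate neutral control median and 100% = total signal loss; the record names both 10 and 1 µM as test concentration; the first replicate is given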
Target sequence (P42568 whole entry, looked up): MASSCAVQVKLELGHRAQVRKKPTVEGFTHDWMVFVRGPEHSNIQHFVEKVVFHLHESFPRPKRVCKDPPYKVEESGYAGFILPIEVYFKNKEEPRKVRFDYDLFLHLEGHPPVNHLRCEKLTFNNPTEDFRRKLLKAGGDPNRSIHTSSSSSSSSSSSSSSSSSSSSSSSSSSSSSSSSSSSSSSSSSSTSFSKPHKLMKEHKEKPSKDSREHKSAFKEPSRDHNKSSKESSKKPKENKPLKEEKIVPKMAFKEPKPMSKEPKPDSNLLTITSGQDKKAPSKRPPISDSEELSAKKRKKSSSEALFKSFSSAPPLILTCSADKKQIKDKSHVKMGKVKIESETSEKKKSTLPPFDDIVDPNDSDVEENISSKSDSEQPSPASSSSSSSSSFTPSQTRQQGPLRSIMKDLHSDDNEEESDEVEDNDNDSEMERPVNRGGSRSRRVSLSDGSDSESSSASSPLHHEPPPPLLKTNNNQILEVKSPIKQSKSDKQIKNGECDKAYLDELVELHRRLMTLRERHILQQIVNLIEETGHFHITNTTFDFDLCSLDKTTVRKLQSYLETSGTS
rRNA inh HTS OD600: also measured in rRNA inh HTS; calls as there; OD600 change, %; measured here: OD600 growth;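 optical density of the mix in the first replicate; 0 = DMSO median and -100 = no signal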
rRNA inh HTS RFP: also measured in rRNA inh HTS; calls as there; RFP signal change, %; measured here: RFP humanized mutant strains;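 first replicate; 0 = DMSO median and -100 = no signal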
The depositor's hits bear a star; & = joins results of further samples. This is a subset; rates above refer to the full screens.

cpd	mol	Vif A3G	rRNA inh HTS	rRNA inh HTS OD600
1	Cc1cccc(NC2CNC(=O)NC2=O)c1 (configuration not stated)	-2%	4	8
2	C[C@@H]1CN([C@@H](C)CO)S(=O)(=O)c2ccc(C#Cc3cccc(F)c3)cc2O[C@@H]1CN(C)CC1CC1	-8%	-3	-16
3	COc1cc(OC)c2c(-c3cccc(-c4cccc(C)c4)c3)cc(=O)oc2c1	-5%	25	15
4	CCCCCCN1C[C@@H](n2cc(COC(=O)c3ccccc3)nn2)[C@H](O)C[C@@H]1c1ccc(OC)cc1	11%	14	16
5	C=CCn1c(SCC(=O)N2CCC(C)CC2)nc2c([nH]c3ccccc32)c1=O	-5%	-1	9
6	O=C1CSC(=S)N1N=Cc1c[nH]c2ccc(Br)cc12	-1%	-24	-11
7	CC(C)C(NC(=O)c1cccc(S(=O)(=O)N2CCOCC2)c1)C(=O)NCc1ccc(Cl)cc1 (configuration not stated)	-21%	7	12
8	Cc1nc(SCC(=O)NC2CCS(=O)(=O)C2)c2c3c(sc2n1)CCCC3 (configuration not stated)	-19%	13	12
9	O=C1NC(=O)C(c2ccccc2)(c2ccc(Cl)cc2Cl)N1 (configuration not stated)	-3%	-10	-25
10	CC(NS(=O)(=O)c1cccc(C(=O)O)c1)C12CC3CC(CC(C3)C1)C2 (configuration not stated)	7%	-21	-25

cpd	rRNA inh HTS RFP	MLL AF4-AF9 inh
1	-2.9	-0.3
2	-6.2	8.6&0.7
3	5.5	-16
4	2.0	1.3
5	1.5	-0.7
6	15	2.7
7	8.8	1.2
8	-0.5	-1.2
9	-4.7	0.6
10	-0.8	0.5

Next section
cpd	mol	Vif A3G	rRNA inh HTS	rRNA inh HTS OD600
11	CC(=O)c1ccc(Cc2ccc(C(C)=O)s2)s1	6%	7	9
12	COc1cc(C(=O)N(C(C)C)C2CCCCC2)cc(OC)c1OC	-3%	-1	-11
13	CC(C)[C@H]1COCCS(=O)(=O)N1Cc1ccccc1-c1ccc(F)cc1	2%	-16	-28
14	Cc1ccc(-c2ccc(C3=CC(=O)CC(C)(C)C3=O)cc2)cc1	-4%	-1	-4
15	O=C(Nc1cccc(C(=O)N2CCCCC2)c1)C1CCC1	1%	8	16
16	COc1cc(C)c2sc3ccccc3c(=O)c2c1NCCN(C)C	1%	-34	-63
17	CC(C)(O)C#Cc1ccc(CNC[C@H]2O[C@@H](n3cnc4c(N)ncnc43)[C@H](O)[C@@H]2O)s1	-4%	6	8
18	O=C(COc1ccccc1)NCc1ccco1	-1%	-2	6
19	CC(C)CCOc1cccc(C2c3c(oc4ccccc4c3=O)C(=O)N2CCCN2CCOCC2)c1 (configuration not stated)	-4%	5	5
20	Clc1ccc2nc(-c3ccccc3)c(Cc3ccccc3)n2c1	-8%	-42	-37

cpd	rRNA inh HTS RFP	MLL AF4-AF9 inh
11	-0.1	-1.8
12	-0.4	0.9
13	-2.4	-1.9
14	-1.4	-3.5
15	2.2	-0.4
16	-3.5	45*
17	-2.4	-17
18	2.4	-2.3
19	0.7	1.5
20	-7.2	0.3

(next part)
cpd	mol	Vif A3G	rRNA inh HTS	rRNA inh HTS OD600
21	CSC[C@H]1CN(c2ccccc2)C(=O)[C@@H]1CC(=O)Nc1ccccc1	-1%	3	7
22	COc1ccc(S(=O)(=O)N2CCN(CC(=O)NC(C)c3cccs3)CC2)cc1 (configuration not stated)	-4%	3	-4
23	CSc1ncnc2ncn(C)c12	-11%	18	16
24	C[C@H]1CN([C@@H](C)CO)S(=O)(=O)c2ccc(Br)cc2O[C@@H]1CN(C)C(=O)Nc1ccc2c(c1)OCO2	-2%	-4&3	-7&-1
25	CCCCN1C(=O)C(CC(=O)NC2CC2)CC(C(=O)N(CC)CC)=C1C (configuration not stated)	4%	8	4
26	Cc1nn(C)c(C)c1/C=C(\C#N)S(=O)(=O)c1ccc(F)cc1	1%	5	4
27	CC(C)(C)C(=O)NCc1ccc(C(=O)CN2C(=O)NC3(CCCC3)C2=O)s1	4%	12	7
28	CN1OC[C@@H]2CN(S(=O)(=O)c3cccc(C(F)(F)F)c3)[C@H](c3ccc(-c4cc5ccccc5o4)cc3)C[C@@H]21	-7%	-4	1
29	CCN1C=C(C(=O)c2ccccc2)C(=O)CC1	12%	12	12
30	Cc1ccc(C(=O)C(C)OC(=O)C2CCN(c3ccc(C(F)(F)F)cn3)CC2)cc1 (configuration not stated)	1%	4	3

cpd	rRNA inh HTS RFP	MLL AF4-AF9 inh
21	-3.2	-3.0
22	7.7	-0.8
23	0.6	-6.4
24	-1.6&-0.6	4.3&1.7
25	1.5	-1.6
26	4.5	-5.9
27	0.0	-0.4
28	0.2	0.5
29	0.0	-0.4
30	-3.5	-2.5

The listing continues.
cpd	mol	Vif A3G	rRNA inh HTS	rRNA inh HTS OD600
31	CCOC(=O)C1(C(=O)OCC)NC(=O)CC1CC(C)C (configuration not stated)	2%	2	4
32	CC(C)(O)CN(C(=O)C(c1ccccc1)c1ccccc1)C1CCCCC1	-6%	-47	-71
33	Cc1ccccc1S(=O)(=O)N1C[C@H]2CON(C)[C@H]2C[C@H]1c1cccc(-c2ccc(C#N)cc2)c1	-4%	-18*	-6.2*
34	Cc1ccc(NC(=O)c2ncn(CC(=O)NCc3ccc4[nH]ccc4c3)n2)cc1C	-6%	-16	-7
35	O=c1cc(SCc2ccc(Cl)cc2Cl)nc[nH]1	2%	-17	-20
36	CC(=O)OC1(C(C)=O)CCC2C3CC(Cl)C4=CC(=O)CCC4(C)C3CCC21C (configuration not stated)	14%	1	0
37	O[C@H]1CN(Cc2cccs2)[C@@H](c2ccccc2)C[C@@H]1n1cc(-c2ccc(F)cc2)nn1	2%	-4	-15
38	CC(NCC(=O)Nc1ccccc1C(=O)NC1CC1)c1cccc(Cl)c1 (configuration not stated)	-3%	-1	-10
39	CN(C)CC1CCC/C(=C/c2ccc(Cl)cc2)C1=O (configuration not stated)	4%	5	12
40	N#CCc1c[nH]c2ccc([N+](=O)[O-])cc12	-4%	-7	-4

cpd	rRNA inh HTS RFP	MLL AF4-AF9 inh
31	-13	-2.1
32	-1.2	-2.0
33	2.4*	0.4
34	4.2	-2.2
35	-7.4	2.8
36	6.6	-12
37	-5.8	-0.5
38	-4.5	-4.5
39	1.7	3.7
40	0.1	-4.3

(cont.)
cpd	mol	Vif A3G	rRNA inh HTS	rRNA inh HTS OD600
41	O=C(O)C1=C(C2CCCCC2)C(=O)c2ccccc21	-3%	1	-1
42	O=C(COC(=O)c1cccc(Cl)c1)NC1CCS(=O)(=O)C1 (configuration not stated)	-1%	12	18
43	Cc1cccc(C(C)C)c1NC(=O)COC(=O)CCC(=O)N(CC(C)C)c1c(N)n(CC(C)C)c(=O)[nH]c1=O	4%	5	12
44	Cc1cn([C@H]2C[C@H](O)[C@@H](CCC(=O)NCc3ccco3)O2)c(=O)[nH]c1=O	3%	15	10
45	CCOc1ccc(S(=O)(=O)N2CCN(CN3C(=O)CC4(CCCC4)C3=O)CC2)cc1	2%	12	7
46	COc1cc(/C=C/C(=O)O)cc(S(=O)(=O)Nc2cc(S(=O)(=O)N3CCCCC3)ccc2Cl)c1OC	-7%	2	7
47	Cc1ccc(S(=O)(=O)NCc2ccccc2)cc1C(=O)N1CCN(S(=O)(=O)c2ccccc2F)CC1	-6%	3	-16
48	Cc1ccccc1NC(=O)CSc1nccn1Cc1ccco1	-2%	3	1
49	O=C(CCc1ccc(O)cc1)NN=Cc1ccc2c(c1)OCO2	2%	-12	0
50	O=C1NC(=S)NC1=Cc1ccccc1O	-4%	-6	-6

cpd	rRNA inh HTS RFP	MLL AF4-AF9 inh
41	0.0	-0.7
42	-0.7	-0.7
43	-1.8	-2.5
44	-0.3	-0.8
45	-3.1	-1.8
46	1.7	2.7
47	8.6	2.3
48	-0.6	-4.0
49	0.8	-0.7
50	-0.5	0.0

Part of the list above, tab-delimited.
No.	smiles	Vif A3G	rRNA inh HTS	rRNA inh HTS OD600	rRNA inh HTS RFP	MLL AF4-AF9 inh
35	O=c1cc(SCc2ccc(Cl)cc2Cl)nc[nH]1	2%	-17	-20	-7.4	2.8
36	CC(=O)OC1(C(C)=O)CCC2C3CC(Cl)C4=CC(=O)CCC4(C)C3CCC21C (configuration not stated)	14%	1	0	6.6	-12
37	O[C@H]1CN(Cc2cccs2)[C@@H](c2ccccc2)C[C@@H]1n1cc(-c2ccc(F)cc2)nn1	2%	-4	-15	-5.8	-0.5
38	CC(NCC(=O)Nc1ccccc1C(=O)NC1CC1)c1cccc(Cl)c1 (configuration not stated)	-3%	-1	-10	-4.5	-4.5
39	CN(C)CC1CCC/C(=C/c2ccc(Cl)cc2)C1=O (configuration not stated)	4%	5	12	1.7	3.7
40	N#CCc1c[nH]c2ccc([N+](=O)[O-])cc12	-4%	-7	-4	0.1	-4.3
41	O=C(O)C1=C(C2CCCCC2)C(=O)c2ccccc21	-3%	1	-1	0.0	-0.7
42	O=C(COC(=O)c1cccc(Cl)c1)NC1CCS(=O)(=O)C1 (configuration not stated)	-1%	12	18	-0.7	-0.7
43	Cc1cccc(C(C)C)c1NC(=O)COC(=O)CCC(=O)N(CC(C)C)c1c(N)n(CC(C)C)c(=O)[nH]c1=O	4%	5	12	-1.8	-2.5
44	Cc1cn([C@H]2C[C@H](O)[C@@H](CCC(=O)NCc3ccco3)O2)c(=O)[nH]c1=O	3%	15	10	-0.3	-0.8
45	CCOc1ccc(S(=O)(=O)N2CCN(CN3C(=O)CC4(CCCC4)C3=O)CC2)cc1	2%	12	7	-3.1	-1.8
46	COc1cc(/C=C/C(=O)O)cc(S(=O)(=O)Nc2cc(S(=O)(=O)N3CCCCC3)ccc2Cl)c1OC	-7%	2	7	1.7	2.7
47	Cc1ccc(S(=O)(=O)NCc2ccccc2)cc1C(=O)N1CCN(S(=O)(=O)c2ccccc2F)CC1	-6%	3	-16	8.6	2.3

Continuation:
cpd	mol	Vif A3G	rRNA inh HTS	rRNA inh HTS OD600
51	Cc1cc(NC(=O)CSc2nc3cc(Cl)ccc3c(=O)n2C(C)C)no1	-11%	13	9
52	O=[N+]([O-])c1ccc(COc2ccc(CN3CCOCC3)cc2)cc1	8%	14	8
53	O=C(O)c1ccc(NC(=S)Nc2ccc(S(=O)(=O)Nc3ccccn3)cc2)cc1	4%	15	13
54	CCC(CC)CN1CCC(CN2C(=S)NC[C@@H]2CC(C)C)CC1	1%	5	10
55	CCOc1cc(N2CCOCC2)c(OCC)cc1NC(=O)c1ccccc1N1CCCC1=O	11%	-2	3
56	O=[N+]([O-])c1ccc2c(c1)C(=NO)c1cc(Cl)c(Cl)cc1-2	-5%	-17	-30
57	CCC(=O)c1ccc(OCC(=O)Nc2cccc(S(=O)(=O)N3CCCCCC3)c2)cc1	-4%	4	1
58	CCCCCCNC(=O)O[C@H]1Cn2c(=O)n(CCCCCC)c(=O)n2[C@@H]2CN(S(=O)(=O)c3ccc(C)cc3)C[C@]12O	1%	7	-12
59	Cc1ccc2c(c1)C(=O)CC(c1ccccc1)S2 (configuration not stated)	-6%	-43	-69
60	O=C(O)c1cccc2c1C(=O)c1cc([N+](=O)[O-])cc([N+](=O)[O-])c1-2	6%	27	5

cpd	rRNA inh HTS RFP	MLL AF4-AF9 inh
51	-0.1	-1.0
52	1.5	4.0
53	3.2	-6.0
54	2.8	0.2
55	-1.3	0.1
56	-9.8	5.7
57	-1.1	-1.9
58	1.7	-1.5
59	-9.7	6.5
60	-10	-2.1

More results follow:
cpd	mol	Vif A3G	rRNA inh HTS	rRNA inh HTS OD600
61	CCOC(=O)C1=CC(=O)CC(C)(C)O1	-4%	7	19
62	O=c1[nH]c(=O)c2[nH]c(=O)n(-c3ccccc3)c2[nH]1	-7%	15	26
63	Cc1ccc(N2CC(C(=O)OCC(=O)Nc3cccc(Cl)c3C)CC2=O)cc1 (configuration not stated)	2%	-4	1
64	CC[C@@]1(C(=O)OC)N[C@H](CN(C)S(=O)(=O)c2ccc(C(F)(F)F)cc2)[C@@H]2C(=O)N(C)C(=O)[C@@H]21	0%	-9	-4
65	COc1ccc(-c2n[nH]nc2C2=CC(=O)CC(C)(C)C2)cc1	3%	-25	-21
66	Nc1cccc2[nH]c(=O)c3ccccc3c12	0%	-6	-10
67	O=C(NCc1ccco1)Nc1cccc(-c2ccccc2)c1	2%	1	-9

cpd	rRNA inh HTS RFP	MLL AF4-AF9 inh
61	-1.7	-0.9
62	0.4	-1.8
63	0.0	1.6
64	1.8	-2.6
65	-3.9	-1.5
66	4.0	-26
67	3.1	2.2

Assay outcomes deposited in PubChem BioAssay by several laboratories.
